H5N1 CPE: antiviral screen in MDCK cells, H5N1 avian flu. cytopathic effect, luminescence, 72 h; active compounds read high; no value below 0 was filed and about half of the inactive calls have no number; reference of the scale not given here. inhibition, % at 50 µM. 96,000 tested, 0.07% active. AID 740; in the data active means inhibition above about 25%
The depositor's hits bear a star; i = inactive. A portion of the library; rates above refer to the full screens.

SMILES	H5N1 CPE
CCN(CC)S(=O)(=O)c1cccc(C(=O)NCC(=O)OCC(=O)NCc2ccccc2)c1	0.8
CCCNC(=S)NC1CC2CCCC(C1)N2CC(C)C (configuration not stated)	0.4
NC(=O)c1c(N)sc2c1CCCCC2	i
CCOc1ccc(NC(=O)CCNc2c(N3CCCC3)c(=O)c2=O)cc1	0.9
Cc1cccc(-n2ncc3c(NC(C)C)ncnc32)c1	0.5
CCOc1ccc2[nH]c(=O)c(CN(Cc3ccccc3)C(=O)N3CCCC3)cc2c1	i
C=CCC1(O)C(=O)N2C(=C1C(=O)N1CCOCC1)c1ccccc1CC2(C)C (configuration not stated)	0.4
COc1ccccc1NC(=O)C1=C(C)Nc2ncnn2C1c1ccc(C)o1 (configuration not stated)	0.2
C=CCn1c(CCNC(=O)c2ccccc2F)nnc1SCC(=O)Nc1nc2ccccc2s1	i
COc1ccc2cc(-c3csc(-c4cccnc4)n3)ccc2c1	i
Cc1c(C)n(C(=O)CSc2nncn2C)c2ccccc12	i
O=C(NCCOc1ccccc1)c1ccc2c(c1)OCO2	0.0
COc1ccc(-c2nnco2)cc1OC	1.1
CC(=O)N=c1sc2c3ccccc3ccc2n1C	1.9
O=C(O)c1ccc2c(c1)nnn2C1CCCCC1	0.8
O=C(CCC1CCCC1)N1CCN(C(=O)c2ccco2)CC1	i
CCN(CC(=O)Nc1ccc2c(c1)OCCO2)CC(=O)Nc1cc(C)on1	0.9
CN1CCN(CC(=O)N2CCn3c4c(c5cc(C6CCCCC6)ccc53)CCCC42)CC1 (configuration not stated)	i
CC(=O)O[C@H]1CSC[C@H]1NC(=O)c1ccccc1	i
O=c1c2cc(N3CCOCC3)ccc2[nH]c(=S)n1CC1CCCO1 (configuration not stated)	0.8
S=C(Nc1ccc(Cl)cc1Cl)Nc1ccccc1Oc1ccccc1	4.2
Cc1c(C(=O)N2CCCCC2)nnn1-c1nonc1N	1.1
CC(=O)Nc1nc2ccccc2n1Cc1ccccc1C	0.3
C=CCOc1ccc(CC2C(=O)N(C)C(=O)N(C)C2=O)cc1	1.3
O=S(=O)(Nc1nc2ccccc2nc1N1CCN(c2ccccc2F)CC1)c1ccc(Cl)cc1	0.4

The list goes on:
SMILES	H5N1 CPE
CC(=O)c1cccc(NC(=O)N2CCCC2C(=O)Nc2cccc(C)c2)c1 (configuration not stated)	0.9
Cc1noc(C)c1C(=O)N1CCCc2ccccc21	1.6
CCOc1cccc(-c2nc3cc(C)ccc3o2)c1	i
COc1ccc(NC(=O)CSc2nc(C)cc(C(F)(F)F)n2)cc1	i
COc1ccc(-c2nc(C#N)c(NCc3cccnc3)o2)cc1OC	0.4
Cc1ccc2c(c1)c1c3n2CCCN(Cc2ccccc2)C3CCC1 (configuration not stated)	0.4
Cc1cc(SCC(=O)OCC(=O)N2CCN(C(=O)c3ccco3)CC2)c(C)cc1Br	0.2
Cc1c(NC(=O)C(C)Sc2nnc(-c3ccccc3)o2)c(=O)n(-c2ccccc2)n1C (configuration not stated)	i
CC1(C(=O)NC2CCCCCCC2)CCC(=O)N1Cc1cccs1 (configuration not stated)	1.3
CC(C)c1nnc(NC(=O)CN(C)S(=O)(=O)c2ccc3c(c2)OCCO3)s1	0.5
CCCCc1c(O)nc(SCC(=O)NC(C)(C)C)n(-c2ccccc2C)c1=O	i
CCOC(=O)c1cc2cc(-c3c(C(=O)OCC)oc4cc(O)cc(O)c4c3=O)ccc2o1	1.7
O=C(CNC(=O)c1ccco1)OCc1c(F)cccc1Cl	1.1
COc1ccc(C2=Nn3c(nnc3-c3ccco3)SC2)cc1OC	3.1
COc1ccc(N2CCN(CCNC(=O)C3CCN(S(=O)(=O)c4cccs4)CC3)CC2)cc1	5.3
O=C(NC(=S)N1CCN(c2c(Cl)cccc2[N+](=O)[O-])CC1)c1cccs1	0.4
COc1ccc(C(O)c2nccn2C)cc1 (configuration not stated)	i
CC1(C)CCCC2=C1CC1C(=O)N(c3ccccc3)C(=O)C1C2 (configuration not stated)	3.2
CCOC(=O)c1cc(-c2cc3ccccc3o2)n[nH]1	i
CCCCNC(=O)c1onc(CSc2ccc(F)c(F)c2)c1C(=O)O	i
CCCc1cc(C(=O)NCc2cccnc2)no1	0.5
CCC(C)NC(=O)c1cnn2c(C)c3c(nc12)CCCC3 (configuration not stated)	i
Cc1ccc2nc(NC(=O)c3cccs3)sc2c1	i
CCCCc1nc2ccccc2c(C(=O)O)c1C	0.1
CC(C)(C)NC(=O)c1ccc2c(c1)N(CC(=O)N1CCN(c3ccc(F)cc3)CC1)C(=O)C(C)(C)O2	i

(cont.)
SMILES	H5N1 CPE
CC1CN(C(=S)NC(=O)c2cccc([N+](=O)[O-])c2)CC(C)O1 (configuration not stated)	i
c1ccc(-c2nnc(-c3ccncc3)o2)cc1	3.8
CCCc1nnc(NC(=O)CN2C(=O)c3ccccc3C2=O)s1	i
CN(C1CCCCC1)S(=O)(=O)c1ccc(NC(=O)c2ccco2)cc1	1.6
CCn1c(COc2ccc(OC)cc2)nnc1SCC(=O)Nc1cc(OC)ccc1OC	i
O=c1cc(Cn2nnc(-c3ccc(Cl)cc3)n2)nc2sccn12	i
Cc1ccc2nc(NC(=O)C3CCCN(S(=O)(=O)c4cccc5nsnc45)C3)sc2c1 (configuration not stated)	i
COCCNC(=O)Cn1c(=O)n(Cc2ccco2)c(=O)c2ccccc21	0.1
Cc1ccc(NC(=O)C2CC(=O)NC(N3CCCCC3)=N2)cc1Cl (configuration not stated)	i
Cc1csc(NC(=O)C2CCCN(S(=O)(=O)c3cccnc3)C2)n1 (configuration not stated)	0.8
CCCCN1C(=O)c2ccc(C(=O)Nc3cccc(C)c3C)cc2C1=O	i
CCC(C)C(NC(C)=O)C(=O)NC(=O)NC(c1ccccc1)c1ccccc1 (configuration not stated)	i
COc1ccc(NC(=O)Nc2c(C)n(-c3ccccc3)c(=O)n2C)cc1OC	i
COc1ccccc1N1CCc2c(C)nc3c(OC)cccc3c21	1.1
CCOc1ccc(-c2nnc(NC(=O)c3ccc(OCC(C)C)c(OC)c3)o2)cc1	2.8
CC(NC(=O)C(=O)NN=C1CCCCCCC1)c1ccccc1 (configuration not stated)	i
O=C(OCC(=O)N1CCC(Cc2ccccc2)CC1)c1ccc[nH]c1=O	0.0
CN(Cc1ccccc1)Cc1nc2c(c(=O)n(C)c(=O)n2C)n1Cc1ccccc1Cl	i
CC1CCCCN1Cc1cnc(Cl)s1 (configuration not stated)	1.4
CCN1C(=O)N(c2ccc(Cl)cc2)C(C)=CC1(C)C	1.4
CNC(=O)c1cc(C)c(-c2ccccc2)s1	i
CC1=C(C(=O)Nc2ccccc2)C2(CCCCC2)C(C#N)=C(SCC(N)=O)N1	i
O=C(Cn1cc(C(=O)c2ccco2)c2ccccc21)NC1CCCC1	i
COC(=O)C1=C(C)NC(=O)C1(NS(=O)(=O)c1ccc(C)cc1)C(F)(F)F (configuration not stated)	0.6
CCOc1ccc(N2C(=O)CS/C2=N/NC(=O)COc2ccc3ccccc3c2)cc1	2.0

Continued.
SMILES	H5N1 CPE
Cc1cc(NC(=O)CSc2nc3ccccc3c(=O)n2-c2ccccc2)no1	1.3
COC(=O)c1ccc(Oc2coc3cc(OCc4cnn(-c5ccccc5)c4)ccc3c2=O)cc1	i
COc1ccc2[nH]c(=O)c(CN(CCc3ccccc3)C(C)=O)cc2c1	1.7
CCN(CC)CCNc1c2c(c(C#N)c3nc4ccccc4n13)CCCC2	0.2
CCCn1c2c(c(O)c(C(=O)Nc3ncccc3O)c1=O)CCCC2	0.8
Cc1ccc2cc(CN(Cc3nnnn3C3CCCCC3)CC3CCCO3)c(=O)[nH]c2c1 (configuration not stated)	2.3
CC1Cc2cc(/C(O)=C3/C(=O)C(=O)N(Cc4ccco4)C3c3cccs3)ccc2O1 (configuration not stated)	0.3
CC1CC(=O)Nc2ccccc2N1S(=O)(=O)c1ccc(Br)cc1 (configuration not stated)	i
COC(=O)c1c(F)c(F)c(NCCO)c(F)c1F	0.8
Cc1nc(-c2ccccn2)sc1C(=O)Nc1ccc(Cl)c(Cl)c1	i
CCCCS(=O)(=O)c1sc2nc(C)cc(C)c2c1N	0.1
CN=c1scc(C)n1/N=C/c1ccc2c(c1)OCO2	i
O=S(=O)(Cc1ccccc1)/C1=C(\N2CCOCC2)CCCCCC1	0.5
O=C(CNC(=O)c1ccco1)OCC(=O)c1ccc2c(c1)CCCC2	0.8
Cc1cc(C)c2nc(NC(=O)c3cc(C)on3)sc2c1	0.4
COc1cccc(OCCCCCN2CCOCC2)c1	0.2
Cc1ccc2nc(SCC(=O)N3CCCC3)[nH]c2c1	0.4
CCN1CCN(C(c2ccccn2)c2c(NC(=O)c3ccccc3)sc(C)c2C)CC1 (configuration not stated)	i
CCOC(=O)CC1=CSC2=NS(=O)(=O)CCN12	i
CCCCn1c(-c2ccccc2)nc2c(=O)n(C)c(=O)[nH]c21	i
CC12CCC(C(=O)NCc3ccc4c(c3)OCO4)(C(=O)C1=O)C2(C)C (configuration not stated)	i
COC(=O)c1[nH]c2cccc(OC)c2c1NC(=O)CCN1CCC(C(N)=O)CC1	i
CN=c1sc2ccccc2n1CC(O)COCc1ccco1 (configuration not stated)	5.2
O=C(/C=N\O)NCCCNCc1ccccc1	i
O=C(Nc1c(F)cc(F)cc1Br)c1ccco1	0.7

An excerpt of these results, as labelled records.
SMILES: C=CCOc1ccc(CC2C(=O)N(C)C(=O)N(C)C2=O)cc1
- H5N1 CPE = 1.3

SMILES: O=S(=O)(Nc1nc2ccccc2nc1N1CCN(c2ccccc2F)CC1)c1ccc(Cl)cc1
- H5N1 CPE = 0.4

SMILES: CC(=O)c1cccc(NC(=O)N2CCCC2C(=O)Nc2cccc(C)c2)c1 (configuration not stated)
- H5N1 CPE = 0.9

SMILES: Cc1noc(C)c1C(=O)N1CCCc2ccccc21
- H5N1 CPE = 1.6

(continued)
SMILES	H5N1 CPE
Cc1ccc(NC(=O)c2ccc3c(c2)N(CC(=O)N2CCCCC2)C(=O)C(C)(C)O3)cc1	i
COc1ccc(CNC(=O)CN(CC2CCCO2)C(=O)CNS(=O)(=O)c2ccc(F)cc2)cc1 (configuration not stated)	0.1
COc1ccccc1C(=O)N/C(=C/c1ccc(Br)cc1)C(=O)NCC(=O)O	i
COc1ccc(Oc2c(Cl)cnn(-c3ccc(Cl)c(Cl)c3)c2=O)cc1	1.1
COc1ccccc1NC(=O)C1=C(C)Nc2nc(CCCO)nn2C1c1cccnc1 (configuration not stated)	0.0
C#CCOC(=O)CCC(=O)NCCc1ccccc1	i
Cn1c(/C(C#N)=C(\O)CN2CCN(Cc3ccccc3)CC2)nc2ccccc21	0.3
ON1C(c2ccccc2)CC2(O)c3nonc3CCC12 (configuration not stated)	i
Cc1cccc(C)c1NC(=O)CSc1nc(COc2ccccc2)nc2ccccc12	i
CC(=O)C1=C(O)C(=O)N(CCNCCO)C1c1ccccc1 (configuration not stated)	i
O=C(Cn1nnc(-c2ccc(CN3CCOCC3)cc2)n1)Nc1nc(-c2ccccc2)cs1	i
O=C1c2ccccc2C(=O)N1CCSc1ccccc1	i
COc1ccccc1OCc1csc(NC(=O)c2ccco2)n1	2.9
Cc1cc(OC(=O)c2ccc(Cl)cc2)cc(=O)n1C	i
CCc1nc(N[C@@H](Cc2c[nH]c3ccccc23)C(=O)O)c2oc3ccccc3c2n1	0.7
CCOC(=O)CSc1nc(N)c(C#N)c(-c2ccc(OC)cc2)c1C#N	i
CCOC(=O)COn1c(=O)c(-c2ccco2)[n+]([O-])c2ccccc21	0.1
COc1ccc(CCNC(=O)Cc2cc(OCc3ccccc3)c(OC)cc2[N+](=O)[O-])cc1OC	1.5
Cc1cc(=O)[nH]c(SCc2nnc(-c3ccccc3)o2)n1	1.2
COCCn1c(SCC(=O)N2CCCc3ccccc32)nc2cccnc21	0.9
Cc1nn(-c2ccc(F)cc2F)c2c1-c1nc(N3CCCC3)ncc1CC2	i
CCOC(=O)c1ccc(NC(=O)C2C3C=CC(O3)C2C(=O)O)cc1 (configuration not stated)	0.8
O=C(COC(=O)c1ccccc1NC(=O)c1ccco1)NCc1ccc2c(c1)OCO2	i
O=C1COc2ccc(-c3csc(NCC4CCCO4)n3)cc2N1 (configuration not stated)	i
N#Cc1ncc(C(F)(F)F)cc1Sc1ccccc1N	0.3

Of the compounds above, eleven contain an NH in an aromatic ring:
SMILES	H5N1 CPE
CCOc1ccc2[nH]c(=O)c(CN(Cc3ccccc3)C(=O)N3CCCC3)cc2c1	i
O=c1c2cc(N3CCOCC3)ccc2[nH]c(=S)n1CC1CCCO1 (configuration not stated)	0.8
CCOC(=O)c1cc(-c2cc3ccccc3o2)n[nH]1	i
O=C(OCC(=O)N1CCC(Cc2ccccc2)CC1)c1ccc[nH]c1=O	0.0
COc1ccc2[nH]c(=O)c(CN(CCc3ccccc3)C(C)=O)cc2c1	1.7
Cc1ccc2cc(CN(Cc3nnnn3C3CCCCC3)CC3CCCO3)c(=O)[nH]c2c1 (configuration not stated)	2.3
Cc1ccc2nc(SCC(=O)N3CCCC3)[nH]c2c1	0.4
CCCCn1c(-c2ccccc2)nc2c(=O)n(C)c(=O)[nH]c21	i
COC(=O)c1[nH]c2cccc(OC)c2c1NC(=O)CCN1CCC(C(N)=O)CC1	i
CCc1nc(N[C@@H](Cc2c[nH]c3ccccc23)C(=O)O)c2oc3ccccc3c2n1	0.7
Cc1cc(=O)[nH]c(SCc2nnc(-c3ccccc3)o2)n1	1.2

Carrying on.
SMILES	H5N1 CPE
COC(=O)c1sccc1NC(=O)C1CC2CCC1C2 (configuration not stated)	5.2
N#CCC(=O)NCC1(c2ccccc2)CCCC1	0.7
CCOC(=O)C(=O)NC1CCSC1=O (configuration not stated)	0.3
COc1ccccc1/C=N/NC(=O)CC(=O)Nc1ccc(Cl)c(Cl)c1	i
O=C(OCC(=O)c1cccs1)c1cccc(C(=O)OCC(=O)c2cccs2)n1	i
O=C(CCN1C(=O)COc2ccccc21)NCCC1=CCCCC1	i
CC(NC(=O)Cc1cccs1)c1ccc2c(c1)OCO2 (configuration not stated)	1.2
COc1cccc(C(=O)/C=C/Nc2cccc(O)c2)c1	i
OCCSc1nnc(Nc2ccccc2)s1	1.0
CSCC[C@H](NC(=O)OC(C)(C)C)C(=O)N1CCC(C(=O)N[C@H](C(=O)O)C(C)C)CC1	i
Cn1c2ccccc2c2cc(C(=O)N3CCOCC3)sc21	i
CCCCc1nnc(NC(=O)CSc2nc(=O)cc(N)n2-c2ccccc2)s1	0.3
COc1ccccc1CNC(=O)/C=C/c1cc2c(cc1Br)OCO2	i
O=C(NCCO)c1ccc2c(c1)S(=O)(=O)c1ccccc1C2=O	1.5

Source: PubChem BioAssay
